gsp antag: antagonists of gsp mutant (McCune-Albright syndrome); 340,000 compounds, 0.4% hits; Potency, µM (series often up to 76.9 µM), for inactives: top-dose activity change, negative = inhibition, actives largely listed as inhibitors; gsp-mutant cells, cAMP HTRF, 30 min; control for the full effect not named in the record; active = falling curve of any shape with a large fitted effect; inconclusive = falling curve, mostly with a smaller effect; inactive = flat or rising curve; cell line not stated here;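 also: intracellular cAMP measured with PDE inhibitor Ro 20-1724 present during compound exposure; potency is read from the fitted curve at half-maximal effect; % is scaled to controls: 0 for no effect and ±100 for the full control effect; nearly all actives have a fitted effect of over 65% in size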
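HTRF cAMP read-out (cAMP-d2 plus anti-cAMP antibody-K in lysis buffer, 30 min RT). Before lysis, cells are exposed to compounds with […] for 30 min at 37C in DPBS containing Ca/Mg, BSA and Tween 20.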
Menin MLL FP FL: menin-MLL binding inhibition, fluorescein peptide. Fluorescence polarization, fluorescein-MLL peptide displacement from menin. FP activity change, % at 61.4 µM. 290,000 tested, under 10 active; inconclusive = falling polarisation curve, or a change in total fluorescence; inactive = total fluorescence flat and polarisation flat or rising; no compound was filed as active; the % refers to the polarisation; negative = inhibition;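 also: % of control where 0% means no effect; inhibitors lower the polarisation; unlabelled MLL peptide was the positive control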
D2 potentiator: human D2 receptor positive allosteric modulation | P14416 | DiscoveRx D2 beta-arrestin cells, luminescence, 90 min; 100% = 57 uM dopamine signal | potentiation, % (no concentration beside the values) | 360,000 compounds, 0.23% hits; active = potentiation of 50% or more; inconclusive = 30% to 50%; inactive = 30% or less;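 also: compound concentration not given in the record; tested on top of an EC20 dose of dopamine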
Target sequence (P14416 whole entry, looked up): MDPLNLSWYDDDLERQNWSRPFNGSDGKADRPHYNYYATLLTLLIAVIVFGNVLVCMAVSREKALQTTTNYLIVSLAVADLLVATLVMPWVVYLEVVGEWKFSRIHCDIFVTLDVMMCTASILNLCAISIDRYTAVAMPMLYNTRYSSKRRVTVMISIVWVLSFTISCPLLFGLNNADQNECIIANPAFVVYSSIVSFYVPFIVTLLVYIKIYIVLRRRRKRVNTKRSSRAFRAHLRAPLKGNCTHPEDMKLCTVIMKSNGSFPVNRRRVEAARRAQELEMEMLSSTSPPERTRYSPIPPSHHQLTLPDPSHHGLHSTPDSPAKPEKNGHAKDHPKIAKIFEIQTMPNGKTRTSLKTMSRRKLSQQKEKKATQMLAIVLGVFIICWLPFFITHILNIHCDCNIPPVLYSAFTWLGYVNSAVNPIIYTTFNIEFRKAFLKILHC
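D2 cells co-treated with compound plus 50 nM dopamine (EC20) for 90 min at 37 deg C to detect potentiation. Beta-arrestin recruitment was read as enzyme-fragment luminescence after 1 h at ambient temperature. Full response was set by 57 uM dopamine.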
Sfp PPTase inh: Sfp phosphopantetheinyl transferase inhibition; Biochemical Sfp PPTase activity, qHTS; Potency, µM, without a hit: max response, negative = inhibition, usual class: inhibitors; 310,000 compounds, 3.5% hits; AID 1490; active = well fitted inhibition curve with a large enough effect; inconclusive = small, poorly fitted or top-dose-only effect, or another doubt; inactive = no such curve, though single readings can be large or run the other way;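 also: the enzyme is Sfp with the accession as filed and its product quenches rhodamine fluorescence; potency is read from the fitted curve at half-maximal effect; 0% = enzyme reaction without inhibitor and -100% = no enzyme wells; top concentration of the series not given in the record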
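After 15 min at room temperature with compound, 15 nM Sfp received 5 uM rhodamine-CoA plus 12.5 uM BHQ-2-ybbR (50 mM Hepes pH 7.6, 10 mM MgCl2). Rate came from the fluorescence difference over 30 min, ex 525/em 598 nm.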
ClpP mod: qHTS Assay for Activators of ClpP. ATP-dependent Clp protease proteolytic subunit (Bacillus subtilis (strain 168)), P80244. purified B. subtilis ClpP, FRET peptide cleavage, 20 min. Potency, µM (series often up to 57.5 µM), for inactives: top-dose activity change, negative = active. 340,000 compounds, 1.9% hits; active = well fitted falling curve with a large enough effect; inconclusive = small, poorly fitted or top-dose-only effect; inactive = no such curve, though single readings can be large or run the other way; also: potency is read from the fitted curve at half-maximal effect; the source files actives as falling curves though it sought activators and does not explain the sign; nearly all actives have a fitted effect of over 65% in size; many hits overshoot -100%
Target sequence (P80244 whole entry, looked up): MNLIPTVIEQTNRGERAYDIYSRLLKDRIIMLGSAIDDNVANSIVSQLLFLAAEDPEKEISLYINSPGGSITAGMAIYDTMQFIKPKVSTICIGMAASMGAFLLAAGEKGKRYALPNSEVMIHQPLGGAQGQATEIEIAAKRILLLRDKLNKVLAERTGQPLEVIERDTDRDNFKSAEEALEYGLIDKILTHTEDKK
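ClpP 10 microg/mL final, pH 8 Tris/KCl buffer with BSA, glycerol, Tween-20; compound pinned in; FRET-FV substrate; RT 20 min; Ex320/Em430; ΔFRET vs ADEP 5.8 microM, DMSO, no enzyme.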
TRPV1 PAM: potentiators of human vanilloid receptor 1 (TRPV1); Q8NER1; TRPV1-expressing cells, Fluo-8 calcium influx, capsaicin EC20 potentiation; host cell line not named in the record; control for the full effect not named in the record; potentiation, % at 8.33 µM; 320,000 compounds, 0.02% hits; active means potentiation above 80%; inconclusive means 30% to 80%; inactive means below 30%; also: 0% is about no effect
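Fluo-8 calcium influx in TRPV1-expressing cells, kinetic read (ex 480/em 520 nm). Compound added and read 3 min for agonist activity, followed by capsaicin at EC20 final and 2 min further read for enhancement.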
gsp agonist: activates gsp, the McCune-Albright syndrome mutation | AID 624287 | gsp mutant cells, cAMP HTRF, 30 min; control for the full effect not named in the record | 340,000 compounds, 0.13% hits | Potency, µM (highest dose often 76.9 µM), inactives show top-dose activation (cAMP increase), actives largely listed as activators; active = well fitted activation curve with a large enough effect; inconclusive = small, poorly fitted or top-dose-only effect, or another doubt; inactive = no such curve, though single readings can be large or run the other way; cell line not stated here;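 also: phosphodiesterase inhibitor Ro 20-1724 added with compounds to block cAMP breakdown; potency is read from the fitted curve at half-maximal effect; nearly all actives have a fitted effect of over 60% in size; about a fifth of the inactives were tested at one dose only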
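Cells stably selected in G418 were plated at 2000/well, grown 16-24 hr, then given compounds in DMSO with the PDE inhibitor […] (300 uM solution added) for 30 min at 37C; cAMP was read by HTRF.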
Numbers without * were called inactive; ? = inconclusive; / = not tested or not shown; [ ] = dose if it differs, or a comment.

SMILES	gsp antag	Menin MLL FP FL	D2 potentiator	Sfp PPTase inh	ClpP mod	TRPV1 PAM	gsp agonist
O=C(NCCCO)c1cc([N+](=O)[O-])cc2c1C=Cc1ccccc1O2	0%	-3.7	6	12%	/	2	11%
CC(=O)Nc1ccc(Nc2nc(-c3sc(NC(C)=O)nc3C)cs2)cc1	-11%	-2.0	3	?	/	-2	1%
S=C1NCN(Cc2cccnc2)CN1Cc1ccccc1	6%	4.4	-10	-11%	-2.5%	7	-11%[15.4 µM]
CCCCCCOC(=O)CC1CC(C(C)=O)C1(C)C (stereo not given)	3%	/	-12	/	2.4%	/	2%[15.4 µM]
CCOc1ccc(S(=O)(=O)NCCC(=O)N2CC=C(c3ccccc3)CC2)cc1	?	/	1	/	-0.5%	10	-6%
O=C(CN(c1ccc(F)cc1)S(=O)(=O)c1ccccc1)Nc1ccccc1C(=O)O	-5%	1.9	9	-6%	/	1	9%[15.4 µM]
CCN=C1SC(CC(=O)NC2CCCCC2)C(=O)N1CC (stereo not given)	-2%	-0.7	-3	12%	0.4%	0	8%
CNC(=O)COC(=O)/C=C/c1cn(-c2ccccc2)nc1-c1ccc2c(c1)OCCO2	-5%	0.7	-3	8%	/	-16	2%[15.4 µM]
COc1ccc(NC(=O)CC(c2ccc(F)cc2)c2ccc(OC)cc2)cc1 (stereo not given)	-4%	8.4	-33	11%	-1.8%	-5	3%
CC(=O)c1c(C)[nH]c(C(=O)OCCOc2ccccc2)c1C	-24%	-0.2	-4	7%	/	13	31%[15.4 µM]
Cc1ccc2nc(NC(=O)c3ccc4c(c3)OCO4)sc2c1	17%	-0.8	-26	1%	4.7%	3	-50%[inhibitor]
CC(C)(C)c1ccc(C(=O)NCC(=O)OCC(=O)Nc2nc(-c3ccc(F)cc3)cs2)cc1	8%	3.1	-1	32%[activator]	0.6%	1	-5%[15.4 µM]
Cc1cccc(C(=O)Nc2ccc(Oc3cnccn3)cc2)c1	9%	8.5	-15	11%	-13%	8	0%
COc1ccc(F)cc1S(=O)(=O)N1CCC(C(N)=O)CC1	0%	2.6	-9	17%	-3.4%	29	-20%
COC(=O)c1ccc(-c2nc3ccccc3o2)cc1	/	-1.7	/	19%	/	18	/

Among those listed so far, these have four or more nitrogen atoms:
SMILES	gsp antag	Menin MLL FP FL	D2 potentiator	Sfp PPTase inh	ClpP mod	TRPV1 PAM	gsp agonist
CC(=O)Nc1ccc(Nc2nc(-c3sc(NC(C)=O)nc3C)cs2)cc1	-11%	-2.0	3	?	/	-2	1%
S=C1NCN(Cc2cccnc2)CN1Cc1ccccc1	6%	4.4	-10	-11%	-2.5%	7	-11%[15.4 µM]

Given as labelled records: part of the list above
molecule: O=C(CN(c1ccc(F)cc1)S(=O)(=O)c1ccccc1)Nc1ccccc1C(=O)O
  gsp antag = -5%
  Menin MLL FP FL = 1.9
  D2 potentiator = 9
  Sfp PPTase inh = -6%
  ClpP mod = /
  TRPV1 PAM = 1
  gsp agonist = 9%[15.4 µM]
molecule: CCN=C1SC(CC(=O)NC2CCCCC2)C(=O)N1CC (stereo not given)
  gsp antag = -2%
  Menin MLL FP FL = -0.7
  D2 potentiator = -3
  Sfp PPTase inh = 12%
  ClpP mod = 0.4%
  TRPV1 PAM = 0
  gsp agonist = 8%
molecule: CNC(=O)COC(=O)/C=C/c1cn(-c2ccccc2)nc1-c1ccc2c(c1)OCCO2
  gsp antag = -5%
  Menin MLL FP FL = 0.7
  D2 potentiator = -3
  Sfp PPTase inh = 8%
  ClpP mod = /
  TRPV1 PAM = -16
  gsp agonist = 2%[15.4 µM]
molecule: COc1ccc(NC(=O)CC(c2ccc(F)cc2)c2ccc(OC)cc2)cc1 (stereo not given)
  gsp antag = -4%
  Menin MLL FP FL = 8.4
  D2 potentiator = -33
  Sfp PPTase inh = 11%
  ClpP mod = -1.8%
  TRPV1 PAM = -5
  gsp agonist = 3%

Next part
SMILES	gsp antag	Menin MLL FP FL	D2 potentiator	Sfp PPTase inh	ClpP mod	TRPV1 PAM	gsp agonist
COc1ccc(Nc2nc(Nc3ccc(OC)cc3)nc(-n3[nH]c(=O)c(C)c3C)n2)cc1	7%	0.2	-29	-3%	-1.6%	12	-25%
CSc1ccccc1NS(=O)(=O)c1cccc2nonc12	-3%	/	1	-1%	0.3%	3	?
O=C(CCc1ccccc1)Nc1cccc(S(=O)(=O)N2CCOCC2)c1	-11%	/	6	/	-0.1%	/	6%
CCOc1ccc(-c2nc(C#N)c(N3CCN(CC)CC3)o2)cc1	-6%	3.6	3	12%	10µM*	-13	?
CCCC1CCC(=NNC(=O)CNc2ccc(OC)cc2)CC1 (stereo not given)	-10%	3.5	-14	0%	-2.9%	-18	-3%
Cc1nnc(SCC(=O)Nc2nnc(-c3ccccc3)o2)s1	-17%	/	-20	/	-2.1%	8	14%
Cc1cc(C)c(-c2cc(C(F)(F)F)no2)c(=O)[nH]1	14%	2.5	1	23%	18µM*	-6	-23%
O=C(CN1C(=O)c2ccccc2S1(=O)=O)N1CCc2ccccc2C1	-2%	1.6	20	6%	-11%	6	?
CC(=O)Nc1ccc(NC(=O)CSc2nnnn2C2CCCCC2)cc1	6%	/	-17	/	-2.1%	6	-7%
O=C(NC(=S)Nc1cccc(NC(=O)c2ccc(Cl)cc2Cl)c1)c1cccs1	-9%	3.3	-16	11%	-0.1%	2	1%
CCOC(=O)Cc1csc(SCC(=O)c2c(N)n(CC(C)C)c(=O)n(C)c2=O)n1	11µM*	1.1	12	20%	-3.5%	-11	3%
CC(=O)Oc1ccc(C(=O)Nc2ccccc2C(=O)N2CCCC2)cc1	2%	-0.1	-2	13%	-3.0%	-16	2%
O=C(NC1CC(=O)N(c2ccc(F)cc2)C1)N1CCN(C(=O)c2ccco2)CC1 (stereo not given)	11%	/	?	/	-1.9%	-3	-42%[inhibitor]
CCCc1cc(C(=O)N2CCN(c3ccccc3C)CC2)cs1	-1%	1.2	-9	-2%	-1.0%	-9	-20%
Clc1ncnc2scc(C3COc4ccccc4O3)c12 (stereo not given)	-14%	2.4	-9	-27%	-1.9%	-6	-36%
O=C1NC[C@@H](Cc2cccc3ccccc23)N(CC2CCCCC2)C1=O	9%	0.8	-8	6%	0.2%	0	6%
O=C(CSc1nnc(NC(=O)c2ccco2)s1)NC1CCCCC1	-17%	2.8	4	-3%	-2.1%	-3	-22%
CC(C)(C)C(=O)[C@@H]1[C@@H]2C(=O)N(C3CCCCC3)C(=O)[C@@H]2[C@H]2c3ccccc3C=CN12	-7%	-2.9	-21	-18%	?	-8	13%
O=C(NCC1CCCN(C(=O)c2cscn2)C1)c1ccccc1Cl (stereo not given)	4%	3.6	-5	21%	/	-3	0%
O=C(CN1C(=O)C(=O)N(C2CCCC2)C1=O)Nc1ccc(OC(F)F)cc1	2%	/	-2	/	0.8%	13	?
Cc1cccc(NC(=O)COC(=O)CC2CCCC2)c1C	13%	/	3	/	/	-28	9%[15.4 µM]
CCOC(=O)Cn1c(S(=O)(=O)Cc2ccccc2Cl)nc(-c2ccccc2)c1-c1ccccc1	-11%	1.1	-7	21%	-7.1%	4	-2%
CCNS(=O)(=O)c1ccc(CCC(=O)Nc2cc(Cl)ccc2Oc2ccccc2)cc1	?	-2.4	7	17%	0.8%	29	-1%
O=C(Nc1ccc(Cl)cc1)Nc1cnccn1	2%	-0.4	-1	1%	-7.3%	-6	19%
CCCCNc1c(-c2ccc(OC)c(Sc3ccc(OC)cc3)c2)nc2ccc(Cl)cn12	-5%	/	1	/	?	/	/
COc1ccc(CNC(=O)CN(C(=O)c2cc3sccc3n2C)C2CCCC2)cc1	-8%	0.5	-23	-1%	-5.9%	-3	-22%
COc1cc2c(cc1OC)CN(CC(=O)Nc1ccc(C)c(C)c1)CC2	-14%	-4.4	-23	3%	-0.9%	-11	8%
CCOc1ccc(C(=O)NC(=S)Nc2ccccc2N2CCOCC2)cc1Br	6%	3.4	12	-5%	1.0%	5	-1%
CC1CC(C)CN(C(=O)COC(=O)CCCN2C(=O)c3cccc4cccc(c34)C2=O)C1 (stereo not given)	-13%	/	4	-1%	?	-9	-20%
COc1ccc(C2=NCCn3nc4cc([N+](=O)[O-])ccc4c32)cc1	-10%	/	-5	/	-5.1%	3	/
CN(C)S(=O)(=O)c1cccc(C(=O)c2nccn2C)c1	2%	-1.0	-3	0%	-0.7%	19	2%[15.4 µM]
COc1ccc(OC)c(NC(=O)CSc2nnc(CNC(=O)c3ccco3)o2)c1	16%	-0.1	-9	-10%	8.6%	9	-16%
CCCS(=O)(=O)C(=C(Nc1ccccc1)Nc1ccccc1)S(=O)(=O)CCC	-8%	4.0	-3	1%	0.5%	-16	8%
O=C(Nc1ncc(Cc2cccc(Cl)c2)s1)C1=NCCN1	-1%	1.8	-7	10%	1.0%	6	-2%
Cc1cc(C)c(C)c(S(=O)(=O)N2CCC(C(=O)Nc3ccccc3N3CCOCC3)CC2)c1C	22%	8.0	-3	-4%	0.8%	-10	-8%
CCC(C)(C)NC(=O)Cc1ccc(Cl)cc1	8%	-0.7	-2	-4%	/	0	-17%[15.4 µM]
C=CCn1c(SCC(=O)NCc2ccccc2)nnc1-c1cc(Br)ccc1O	-27%	0.3	-8	9%	-4.6%	6	15%
COc1ccccc1N1CCN(/N=C/c2cc(Br)ccc2F)CC1	1%	-1.1	-3	-2%	-4.0%	8	7%
COc1ccc(C(=O)OCC(=O)NC2CCCC2)c(OC)c1	-6%	2.3	-4	16%	-5.0%	-2	?
Cc1cccc(N2CCN(C(=O)Cc3ccc(-n4c(=O)[nH]c5ccsc5c4=O)cc3)CC2C)c1 (stereo not given)	?	7.3	1	6%	-1.3%	-4	16%[15.4 µM]
N=c1n(CC(=O)c2cccc([N+](=O)[O-])c2)c2ccccc2n1Cc1ccccc1	11%	-5.8	8	-8%	/	3	-22%[15.4 µM]
O=C(C1=C[C@H](c2coc3ccccc3c2=O)C[C@H](OCCCCO)O1)N1CCN(Cc2ccccc2)CC1	-7%	-5.7	-7	0%	-0.7%	18	44%
Cc1ccc(OCC(=O)NNC(=O)c2cc(S(=O)(=O)N(C)C)ccc2N2CCCC2)cc1	/	/	-19	/	-1.3%	/	-22%
Clc1ccc(C(c2nnnn2C2CCCC2)N2CCSCC2)cc1 (stereo not given)	-4%	-1.4	3	6%	0.1%	-8	-16%

Compound activity from PubChem BioAssay.
